gsp antag: antagonists of gsp mutant (McCune-Albright syndrome); gsp-mutant cells, cAMP HTRF, 30 min; control for the full effect not named in the record; Potency, µM (top dose mostly 76.9 µM), inactives show top-dose activity change, negative = inhibition, usual class: inhibitors; hit rate 0.4% among 340,000; AID 624288; active = falling curve of any shape with a large fitted effect; inconclusive = falling curve, mostly with a smaller effect; inactive = flat or rising curve; cell line not stated here;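 note: intracellular cAMP measured with PDE inhibitor Ro 20-1724 present during compound exposure; potency is the fitted concentration of half-maximal effect; % is set by controls: 0 for no effect and ±100 for the full control effect; nearly all actives have a fitted effect of over 65% in size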
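Cells in G418 medium, seeded 16-24 h, 37C; buffer exchange to DPBS + 1 mM CaCl2, 0.5 mM MgCl2, 0.05% BSA; cpds in DMSO + […] (300 uM stock), 30 min 37C; HTRF cAMP detection.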
TRPV1 PAM: potentiators of human vanilloid receptor 1 (TRPV1); Q8NER1; TRPV1-expressing cells, Fluo-8 calcium influx, capsaicin EC20 potentiation; host cell line not named in the record; control for the full effect not named in the record; potentiation, % at 8.33 µM; hit rate 0.02% among 320,000; active means potentiation above 80%; inconclusive means 30% to 80%; inactive means below 30%; note: 0% is about no effect
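TRPV1-expressing cells were cultured overnight at 35.5C and loaded with Fluo-8 calcium dye for 40 to 90 min at room temperature. After a 10 s baseline, compound was added and calcium influx was read kinetically for 3 min (ex 480/em 520 nm).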
TRPML1 inh: inhibitors of human TRPML1 channel. Q9GZU1. TRPML1-inducible cells, Ca2+ dye fluorescence, FDSS; stronger effect = lower value; inhibition of EC80 agonist-evoked calcium signal. activity change, negative = inhibition, % (no concentration beside the values). hit rate 0.02% among 390,000. AID 624415; in the data active means activity change below about -50%; inconclusive means about -30% to -50%; inactive means above about -30%;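 note: stimulus is agonist 54-4 at its EC80 concentration; % is set by controls: 0 for no effect and ±100 for the full control effect; compound concentration not given in the record; the text of the record puts the active cut at -80%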
Target sequence (Q9GZU1 whole entry, looked up): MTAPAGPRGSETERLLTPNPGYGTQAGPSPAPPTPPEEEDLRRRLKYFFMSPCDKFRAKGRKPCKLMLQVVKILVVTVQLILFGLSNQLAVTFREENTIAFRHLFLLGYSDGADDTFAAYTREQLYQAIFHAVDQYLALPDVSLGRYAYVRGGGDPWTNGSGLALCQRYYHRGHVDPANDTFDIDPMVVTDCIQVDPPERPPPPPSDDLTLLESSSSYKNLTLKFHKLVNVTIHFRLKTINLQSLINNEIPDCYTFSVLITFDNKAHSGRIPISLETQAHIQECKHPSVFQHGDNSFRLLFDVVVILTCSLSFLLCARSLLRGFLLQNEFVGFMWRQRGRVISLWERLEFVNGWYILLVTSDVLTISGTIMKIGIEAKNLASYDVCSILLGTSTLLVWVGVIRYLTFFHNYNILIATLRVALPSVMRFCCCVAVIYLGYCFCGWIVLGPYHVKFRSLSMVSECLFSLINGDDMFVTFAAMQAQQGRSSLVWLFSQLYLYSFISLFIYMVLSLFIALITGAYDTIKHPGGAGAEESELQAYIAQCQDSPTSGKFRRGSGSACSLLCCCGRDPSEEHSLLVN
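Calcium fluorescence in TRPML1-DL cells induced overnight with Tet: a 110 s read after compound pin addition, then a 110 s antagonist read after challenge with 54-4 at 4 uM final (EC80).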
Menin-MLL FL inh: displaces fluorescein MLL peptide from human menin; FP activity change, % at 61.4 µM; Fluorescence polarization, fluorescein-MLL peptide displacement from menin; 290,000 tested, under 10 active; AID 1766; inconclusive = falling polarisation curve, or a change in total fluorescence; inactive = total fluorescence flat and polarisation flat or rising; no compound was filed as active; the % refers to the polarisation; negative = inhibition;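 note: % of control where 0% means no effect; inhibitors lower the polarisation; unlabelled MLL peptide was the positive control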
ClpP mod: qHTS Assay for Activators of ClpP | ATP-dependent Clp protease proteolytic subunit (Bacillus subtilis (strain 168)), P80244 | purified B. subtilis ClpP, FRET peptide cleavage, 20 min | Potency, µM (top dose mostly 57.5 µM), for inactives: top-dose activity change, negative = active | hit rate 1.9% among 340,000; active = well fitted falling curve with a large enough effect; inconclusive = small, poorly fitted or top-dose-only effect; inactive = no such curve, though single readings can be large or run the other way; note: potency is the fitted concentration of half-maximal effect; the source files actives as falling curves though it sought activators and does not explain the sign; nearly all actives have a fitted effect of over 65% in size; many hits overshoot -100%
Target sequence (P80244 whole entry, looked up): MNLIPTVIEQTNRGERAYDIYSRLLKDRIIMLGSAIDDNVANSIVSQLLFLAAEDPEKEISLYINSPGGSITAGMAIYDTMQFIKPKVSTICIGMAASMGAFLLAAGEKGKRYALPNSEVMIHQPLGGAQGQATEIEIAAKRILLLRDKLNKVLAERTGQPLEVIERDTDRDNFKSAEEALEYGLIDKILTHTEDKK
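ClpP 10 microg/mL final, pH 8 Tris/KCl buffer with BSA, glycerol, Tween-20; compound pinned in; FRET-FV substrate; RT 20 min; Ex320/Em430; ΔFRET vs ADEP 5.8 microM, DMSO, no enzyme.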
gsp agonist: gsp mutant agonism. gsp mutant cells, cAMP HTRF, 30 min; control for the full effect not named in the record. Potency, µM (doses to about 76.9 µM), inactives show at the top dose activation (cAMP increase), actives largely listed as activators. hit rate 0.13% among 340,000; active = well fitted activation curve with a large enough effect; inconclusive = small, poorly fitted or top-dose-only effect, or another doubt; inactive = no such curve, though single readings can be large or run the other way; cell line not stated here;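 note: phosphodiesterase inhibitor Ro 20-1724 added with compounds to block cAMP breakdown; potency is the fitted concentration of half-maximal effect; nearly all actives have a fitted effect of over 60% in size; about a fifth of the inactives were tested at one dose only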
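Cells stably selected in G418 were plated at 2000/well, grown 16-24 hr, then given compounds in DMSO with the PDE inhibitor […] (300 uM solution added) for 30 min at 37C; cAMP was read by HTRF.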
Sfp PPTase inh: inhibitors of Bacillus subtilis Sfp phosphopantetheinyl transferase; Potency, µM, inactives show max response, negative = inhibition, usual class: inhibitors; Biochemical Sfp PPTase activity, qHTS; hit rate 3.5% among 310,000; Q9F4F7; active = well fitted inhibition curve with a large enough effect; inconclusive = small, poorly fitted or top-dose-only effect, or another doubt; inactive = no such curve, though single readings can be large or run the other way;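 note: the enzyme is Sfp with the accession as filed and its product quenches rhodamine fluorescence; potency is the fitted concentration of half-maximal effect; 0% = enzyme reaction without inhibitor and -100% = no enzyme wells; top concentration of the series not given in the record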
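Compounds were incubated with enzyme (final 15 nM) for 15 min at room temperature before substrate addition started the reaction. Fluorescence at 525 nm excitation, 598 nm emission was recorded immediately and after 30 minutes.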
* marks the source's active call; other numbers are inactive results; ? = inconclusive; . = not tested or not shown; & = joins results of further samples; [ ] = dose if it differs, or a comment. Not a hit list. About 4.9% of those tested had a hit in this group.

Under each structure – gsp antag	TRPV1 PAM	TRPML1 inh	Menin-MLL FL inh	ClpP mod	gsp agonist	Sfp PPTase inh
> COc1ccc(CCNC(=O)CSc2nc3[nH]ncc3c(=O)[nH]2)cc1OC
  3%	-5	20	-3.2	.	-13%[15.4 µM]	13%
> CCOC(=O)C1=C(CN2CCSCC2)NC(=O)NC1c1cccc([N+](=O)[O-])c1 (stereo not given)
  0%	-3	-10	-2.3	0.6%	4%	17%
> O=C(NCCC1CCCCN1S(=O)(=O)c1ccccc1)C(=O)Nc1ccccc1F (stereo not given)
  -17%	-3	28	.	1.2%	21%	.
> CC1(c2nc3ccccc3cc2C#N)OCCO1
  .	.	1	.	0.4%	-2%	.
> CC(NC(=O)c1ccc(F)cc1)c1ccc(F)cc1 (stereo not given)
  9%	2	-9	-1.7	-0.9%	-14%	-5%
> COc1ccc(N2CCN(C(=O)c3cc4c(-c5cccc(OC)c5)nn(C)c4s3)CC2)cc1
  2%	3	5	1.8	-2.1%	-1%	-9%
> O=C(N/N=C/c1ccccn1)C12CC3CC(CC(C3)C1)C2
  9%	2	30	7.8	-0.5%	23%	-35%
> CC1CCC2(CC1)NC(=O)N(Cc1cccc(C(F)(F)F)c1)C2=O (stereo not given)
  7%	-11	-9	-1.6	.	-3%	0%
> O=C(CSc1nnc(-c2ccccc2)o1)N1CCc2ccccc2C1
  -6%	-20	-20	-0.1	-2.5%	19%	-15%
> Cc1nccn1CC(=O)N/N=C/c1cc(Br)cs1
  1%	?	15	0.2	.	3%[15.4 µM]	-2%
> CCC(C)NC(=O)c1cc(S(=O)(=O)N2CCCCC2)c[nH]1 (stereo not given)
  14%	-12	26	-2.1	-3.0%	17%	11%
> Cc1cccc(-c2nnc(-c3cccc4ccccc34)o2)c1
  -2%	.	36	.	-2.6%	-13%[15.4 µM]	.
> Cc1ccc([C@H]2C[C@@H](n3cc(COC(=O)c4ccccc4)nn3)[C@H](O)CN2Cc2cccs2)cc1
  .	.	2	.	-0.3%	-55%	.
> Brc1cccc(Nc2nc(-c3cccnc3)cs2)c1
  -16%	1	-2	-1.0	1.5%	-5%[15.4 µM]	-6%
> S=C(NCc1ccccc1)NC1CCSc2ccccc21 (stereo not given)
  9%	-5	56	.	-1.6%	-24%	6%
> CCOC(=O)c1c(NC(=O)CSc2nnnn2C)sc(C)c1-c1ccc(C)cc1
  -6%	5	52	-1.1	-6.7%	-1%	6%
> CC(NC(=O)C(=O)NN=C1CCCCCC1)c1ccccc1 (stereo not given)
  12%	8	-3	-1.2	-0.1%	-14%	22%
> CC(=O)Nc1ccccc1OCc1nnc(-c2ccccc2Cl)o1
  -3%	?	15	0.7	-0.4%	10%[15.4 µM]	-5%
> COc1ccc(/C=C/C(=O)NCC(=O)N/N=C/c2cccs2)cc1
  -3%	-6	1	1.9	-9.6%	15%[15.4 µM]	9%
> Cc1cnc(C(=O)OCC(=O)NC2CCCCCCC2)cn1
  7%	-3	16	3.9	.	-24%	-3%
> COc1ccc(NC(=O)c2ccc(N(C)S(C)(=O)=O)cc2)cc1OC
  -7%	-3	0	-1.9	-0.2%	3%	7%
> O=c1c(F)cn(C2CCCO2)c(=O)n1Cc1c(Cl)cccc1Cl (stereo not given)
  0%	-10	5	3.5	-0.4%	-29%	14%
> COc1cccc(NCc2cc3c(C(C)(C)C)nn(-c4ccccc4)c3[nH]c2=O)c1
  -19%	0	-7	-0.5	2.8%	15%	12%
> CCOC(=O)Cc1csc(NC(=O)C(C)c2ccc([N+](=O)[O-])cc2)n1 (stereo not given)
  -12%	7	-15	0.7	.	0%[15.4 µM]	3%
> CCc1ccc(Nc2nnc(SCC(=O)N(C)C3CCS(=O)(=O)C3)s2)cc1 (stereo not given)
  3%	-6	7	0.9	-0.8%	18%	7%
> O=C(Nc1nccs1)c1ccc(Cl)s1
  4%	0	-4	2.5	1.4%	-54%[inhibitor]	9%
> Cc1c(CCOC(=O)c2ccc(Cl)cc2Cl)sc[n+]1CC(=O)c1ccc(Br)cc1
  8%	.	-1	.	1.0%	-19%	.
> COc1ccc2[nH]c3c(=O)n(Cc4ccc(C(=O)N5CCC(C(N)=O)CC5)cc4)c(=S)[nH]c3c2c1
  -10%	1	7	-3.6	6.0%	?	22µM*
> Cc1ccc2c(c1)c(=O)c(Br)c(C)n2Cc1ccccc1
  -14%	-26	9	1.9	1.5%	6%	-19%
> O=C(Nc1ccccc1Cl)c1ccccc1Cl
  2%	20	21	-0.7	-0.7%	-2%	8%
> O=C(Oc1c(-c2ccccc2)oc2ccccc2c1=O)c1ccccc1
  ?	1	-10	0.2	-22%	-31%[inhibitor]	2%
> COc1cccc(-n2c(SCC(=O)NCC3CCCO3)nc3c([nH]c4ccccc43)c2=O)c1 (stereo not given)
  4%	19	-17	.	-29%	-5%	10%
> Cc1oc2c(cc(NS(=O)(=O)c3ccc(F)cc3)c3ccccc32)c1C(=O)O
  ?	1	-13	?	.	-18%	3%
> COc1ccc2[nH]c(=O)c(CN(CCO)S(=O)(=O)c3ccc(C)cc3)cc2c1
  -4%	11	-19	-0.6	4.7%	?	1%
> CNC(=S)N(Cc1cc2cc(C)cc(C)c2[nH]c1=O)C1CCCC1
  -11%	-10	7	-3.2	.	10%[15.4 µM]	7%
> NC(=O)CC[C@@H]1NC(=O)[C@H](Cc2ccccc2)NC(=O)[C@H](Cc2ccc(O)cc2)NC(=O)[C@@H](N)CSSC[C@@H](C(=O)N2CCC[C@H]2C(=O)N[C@@H](CCCN=C(N)N)C(=O)NCC(N)=O)NC(=O)[C@H](CC(N)=O)NC1=O
  .	7	.	8.0&4.8&-2.1	.	.	9%&13%&3%
> COC(=O)c1cc(Cl)c(N)cc1OC
  6%	-3	7	0.2	-1.1%	-35%[inhibitor]	1%
> Cc1ccc(/C(N)=N/OC(=O)c2cc(-c3ccccc3)nc3ccccc23)cc1
  3%	10	8	-0.2	-1.7%	-53%[inhibitor]	16%
> Cc1cc(NCC(=O)Nc2ccc(C)c(S(=O)(=O)N3CCOCC3)c2)ccc1Br
  .	.	-5	.	-1.2%	31%	.
> CC(C)(C)OC(=O)N(CCc1ccccc1)Cc1ccccc1OCc1cccc(NC(=O)C2CCCC2)c1
  -2%	.	2	.	-0.8%	.	.
> CCOC(=O)c1ccc2c(c1)N(CC(=O)N1CCCC1)C(=O)C(C)(C)O2
  1%	-6	-7	3.9	1.1%	-13%	3%
> COCCNS(=O)(=O)c1ccc(-c2ccc(S(=O)(=O)NCCOC)cc2)cc1
  3%	0	-7	3.1	-0.8%	-30%[inhibitor]	20%
> Cc1[nH]nc2c1C(c1ccc(Cl)cc1)C(C#N)=C(N)O2 (stereo not given)
  -8%	-2	-13	2.3	3.7%	22%	13%
> O=S1(=O)CCN2C(c3ccc4c(c3)CCCC4)=CSC2=N1
  -6%	-8	-1	0.2	?	?	16%
> Cc1cc(=S)c2cccc(C)c2[nH]1
  5%	-4	5	1.0	.	32%[15.4 µM]	35µM*
> COCCSc1nc2c(c(=O)[nH]c(=O)n2C)n1Cc1cccc(C)c1
  -3%	-1	-2	-5.7	-3.6%	-22%	12%
> CSc1ccc(/C=N/N2CCN(Cc3ccccc3)CC2)cc1
  -9%	8	?	-0.2	.	11%	-3%
> N#CC(C(=O)NC1CCCCC1)=C1CCCCCC1
  10%	-7	3	1.1	16µM*	-1%	-23%
> CC(Oc1ccccc1)C(=O)Nc1ccc(NC(=O)c2ccccc2)cc1 (stereo not given)
  12%	0	-28	-4.0	-8.4%	-27%	15%
> Cc1cccc(NC(=O)CS(=O)(=O)c2cn(CC(=O)N3CCOCC3)c3ccccc23)c1
  5%	24	-1	-0.7	.	28%	16%
> CCCc1cc(=O)[nH]c(SCC(=O)Nc2ccc(S(=O)(=O)N3CCCC3)cc2)n1
  -11%	.	1	.	.	-15%	.
> Cc1cc(S(=O)(=O)NCc2ccccc2)ccc1OCC(=O)NCC1CCCO1 (stereo not given)
  -11%	6	-14	-1.8	.	-14%	12%
> Cc1ccc(C(=O)OCC(=O)Nc2cc(F)ccc2F)cc1NC(=O)c1ccco1
  0%	11	8	1.4	17%	-41%[inhibitor]	8%
> Cc1cccc2sc(N(CCN(C)C)C(=O)c3ccc4ccccc4c3)nc12
  -5%	5	-7	5.1	2.2%	12%	-2%
> S=C(Nc1ccc(Cl)cc1)N(CCCN1CCOCC1)Cc1cccs1
  -10%	0	-5	-2.4	-3.3%	-1%[15.4 µM]	4%
> Cc1ccc(S(=O)(=O)Nc2cc(C(F)(F)F)ccc2N2CCOCC2)c(C)c1
  0%	-8	1	0.2	-4.4%	10%	-9%
> CCO[C@@H]1OC(C(=O)NCc2ccccc2)=C[C@H](C(C)(C)C)[C@H]1CCCO
  4%	0	-4	2.9	0.5%	-5%	9%
> Cc1cc(Br)ccc1SCC(=O)OC/C(O)=C(\C#N)c1nc2ccccc2[nH]1
  -1%	8	5	11	-8.6%	25%	9%
> O=C(NC1CCCCC1)c1ccc(CN2CCOCC2)cc1
  7%	-1	58	-1.0	-1.3%	19%	-4%
> CCN1CCN(C(=O)C(=O)c2cn(CC(=O)N(CC)CC)c3ccccc23)CC1
  -4%	1	10	-7.6	-0.4%	-7%[15.4 µM]	2%

(listing goes on)
Under each structure – gsp antag	TRPV1 PAM	TRPML1 inh	Menin-MLL FL inh	ClpP mod	gsp agonist	Sfp PPTase inh
> Cc1ccc(NC(=O)c2ncn(CCCNCCCN3CCCC3=O)n2)cc1C
  5%	.	-13	.	-0.3%	.	.
> Cc1occc1C(=O)NNC(=O)CN1C(=O)NC2(CCCCC2)C1=O
  16%	-4	2	.	1.4%	-28%	.
> COc1ccc(CCc2nnc(CCC(=O)NCc3cnn(-c4ccccc4C)c3)o2)cc1
  4%	0	-7	4.2	-0.3%	-25%	-10%
> CC1CCN(C(=O)C2CCN(S(=O)(=O)c3ccc4c(c3)CC(C)N4C(=O)C3CC3)CC2)CC1 (stereo not given)
  -2%	-3	-7	-1.4	.	35%	7%
> C=CCn1c(SCC(=O)Nc2ccc3c(c2)OCO3)nnc1-c1ccccc1OC
  -2%	-5	-16	0.5	1.1%	-29%	10%
> CCCc1nnc(SCC(=O)N2CCOCC2)n1Cc1ccco1
  -1%	8	-11	5.6	-0.5%	9%	16%
